# 2A Renilla – FMDV 2A StopGo reporter, Renilla signal | HEK cells with a luciferase reporter of 2A StopGo recoding | Potency, µM (highest dose often 57.5 µM), for the others: top-dose signal change, negative = less light | hit rate 0.32% among 120,000; active means well fitted falling curve with a large enough effect; inconclusive means small, poorly fitted or top-dose-only effect; inactive means no such curve, though single readings can be large or run the other way; note: nearly all actives have a fitted effect of over 55% in size; overnight with compound
# 2A firefly – lowers the firefly signal of an FMDV 2A StopGo reporter. HEK cells with a luciferase reporter of 2A StopGo recoding. hit rate 0.23% among 120,000. Potency, µM (series often up to 57.5 µM), for the others: at the highest dose signal change, negative = less light; active = well fitted falling curve with a large enough effect; inconclusive = small, poorly fitted or top-dose-only effect; inactive = no such curve, though single readings can be large or run the other way; note: nearly all actives have a fitted effect of over 60% in size; overnight with compound
# Numbers without * were called inactive; ? = inconclusive; & = joins results of further samples; [ ] = dose if it differs, or a comment. % is set by controls: 0 for no effect and ±100 for the full control effect; potency is the fitted concentration of half-maximal effect. No enrichment for hits; any-hit rate near 0.53%.
# Second line of a record – 2A Renilla | 2A firefly
CCOc1ccc(C2C(C(=O)Nc3ccc(OC)cc3)=C(C)Nc3nc(CCCO)nn32)cc1 (stereo not given)
→ -13% | -12%
CCOC(=O)N1CCN(Cc2cc(=O)oc3cc(C)ccc23)CC1
→ 1% | 5%
O=C(c1cc(=O)c2ccccc2o1)N1CCC(Cc2ccccc2)CC1
→ 30%[activator] | 55%[activator]
O=C(CC1C(=O)N(C2CCCC2)c2nc3ccccc3n21)Nc1ccc2c(c1)OCO2 (stereo not given)
→ 34%[activator] | 9%
CCn1cnc2c1c(=O)n(CC(=O)Nc1cccc(OC)c1)c(=O)n2Cc1ccccc1
→ ? | ?
CCCN(CCC)CCCNC(=O)c1cc2c(=O)[nH]c3ccccc3c2n1C
→ -12% | -20%
O=C(O)c1ccc2[nH]ncc2c1
→ 4% | -2%
COc1cccc(CN(C)CC(=O)Nc2cc(C)nn2-c2ccccc2C)c1
→ 0% | -8%
CC1(C)CC(OC(=O)CCCCC(=O)OC2CC(C)(C)NC(C)(C)C2)CC(C)(C)N1
→ 9% | 10%
CS(=O)(=O)c1ncc(Cl)c(C(=O)Nc2ccc(OC(F)F)cc2)n1
→ ? | ?
Cc1ccc(Cn2cccc(C(=O)Nc3nnc(C)s3)c2=O)cc1
→ 1% | -3%
CC(C)Oc1ccc(C(=O)N2CCc3c(sc4ncnc(N)c34)C2)cc1
→ 5% | 16%
O=C(c1cccc(-n2cnnn2)c1)N(Cc1ccco1)Cc1cccs1
→ 45%[activator] | 2%
COc1ccc(Cl)cc1NC(=O)CN(c1cccc(C)c1C)S(=O)(=O)c1ccccc1
→ 15% | 1%
COc1ccc(Nc2nc3ccccc3nc2NS(=O)(=O)c2cccc(C)c2)c(OC)c1
→ 7% | 4%
CSc1cccc(C(=O)Nc2cc(F)c(F)cc2Cl)c1
→ 19% | 0%
COc1ccc(/C=C/c2onc(C)c2S(=O)(=O)N2CCC(C(=O)N3CCCCC3)CC2)cc1
→ -5% | -12%
CC(C(=O)NC(=O)NC1CC1)N1CCN(c2ccccc2F)CC1 (stereo not given)
→ 2% | 10%
O=C(O)CNS(=O)(=O)c1cccc(C(F)(F)F)c1
→ 2% | -3%
O=C1CCCc2[nH]cc(-c3ccccc3)c21
→ 30%[activator] | 210%[activator]
Cc1nc(-c2ccccc2)ncc1C(=O)O
→ 11% | 0%
Cc1cc(-c2ccco2)n[nH]1
→ -7% | 57%[activator]
Nc1ccc(S(=O)(=O)Nc2nccs2)cc1
→ -8% | -9%
Cc1ccc(N(C)C(=O)c2sc3nc4n(c(=O)c3c2C)CCCC4)cc1C
→ 7% | 0%
O=C(OCc1cc2ccccc2[nH]c1=O)c1ccccc1F
→ -9% | -4%
CC(=O)Nc1ccc(SC2CCCCCC2=O)cc1 (stereo not given)
→ 31%[activator] | 0%
O=C(O)c1ccc(NC(=O)c2ccc(Br)c(S(=O)(=O)N3CCCC3)c2)cc1
→ -7% | -17%
O=C(CCCSc1nccc(C(F)(F)F)n1)c1ccc(F)cc1
→ -7% | 22%
COc1cc(OC)cc(C(=O)NCCCNC(=O)c2nc3ccccc3c(=O)[nH]2)c1
→ -13% | 0%
COc1ccc(N2CCN(CC(O)COc3ccc(C)cc3C)CC2)cc1 (stereo not given)
→ -5% | -13%
O=C(Cc1ccc(Br)cc1)N1CCN(c2ccccc2)CC1
→ 14% | 82%[activator]
CC(C)CCn1c(=O)c2sccc2n2c(CCCC(=O)NCCc3ccccc3)nnc12
→ 35%[activator] | 2%
O=C(Nc1cccc(F)c1)C1CCN(S(=O)(=O)c2ccc3[nH]c4c(c3c2)CCCCC4)CC1
→ ? | ?
CC(C)Cn1nc(C(=O)OCC(=O)Nc2ccc(OC(F)(F)F)cc2)c2ccccc2c1=O
→ -6% | 4%
Cc1c(C)c2ccc(OCC(=O)Nc3ccc(CCO)cc3)cc2oc1=O
→ ? | ?
CCCOC(=O)c1c(C)oc2c1cc(NS(=O)(=O)c1ccc(OCC)cc1)c1ccccc12
→ 50%[activator] | 22%
CCOc1nc(NC(=O)NC(=O)c2cccc(F)c2)nc(-c2ccccc2)n1
→ -10% | 0%
Cn1c(=O)c2c(nc(NCC(O)c3ccccc3)n2Cc2ccc(Cl)cc2Cl)n(C)c1=O (stereo not given)
→ -20% | -5%
CCC(=O)N1CCc2ccccc21
→ -6%[1.06 µM] | 6%
CCOCCCNC(=O)C1CCN(c2nc3ccc(Cl)cc3[nH]2)CC1
→ -17% | -9%
CC(c1ccccc1)n1c(NCCCn2ccnc2)nc2c1c(=O)[nH]c(=O)n2C (stereo not given)
→ 13% | 12%
N#Cc1ccc(NC(=O)c2ccc3c(c2)nnn3C2CCCC2)cc1
→ 6% | 3%
Cc1cc(C(=O)O)sc1-c1ccc(C(C)(C)C)cc1
→ 19% | -36%
CCCSc1ncnc2c1c(-c1ccccc1)cn2-c1ccccc1OC
→ -8% | -8%
O=S(=O)(NCc1ccccc1S(=O)(=O)N1CCCCC1)c1ccc2c(c1)CCCC2
→ -37% | ?
Cc1cc(C)c(Cn2c(C)c(CNCc3ccccc3C)c(C(=O)O)c2C)c(C)c1
→ 196%[activator] | 15%
Cc1ccccc1-c1nc(CS(=O)(=O)CC(=O)NCC(C)c2ccccc2)c(C)o1 (stereo not given)
→ 0% | -13%
Cc1nn(-c2nc3c(c(=O)n(CC(N)=O)c(=O)n3C)n2CCc2ccccc2)c(C)c1C
→ -8% | -6%
CCOCCn1ccc2c(OCC(=O)NCc3ccc(C)cc3)cccc2c1=O
→ -10% | -4%
CCN1CCN(c2ncnc3c2cnn3-c2ccc(C)cc2)CC1
→ -5% | 102%[activator]
Cc1nn(C)c(C)c1NC(=O)C1CC(=O)N(c2ccc3c(c2)CCC3)C1 (stereo not given)
→ -12% | -4%
CC1=C(C(=O)Nc2ccccc2)C(c2ccccc2Cl)N2C(=O)CSC2=N1 (stereo not given)
→ -9% | -1%
CCc1ccc(NC(=O)Cc2nc(-c3c[nH]c(C(=O)N4CCCC4)c3)cs2)cc1
→ 160%[activator] | 33%[activator]
N#Cc1ccccc1NCc1ccccn1
→ 7% | 0%
Cc1ccc2c(c1)N(C(=O)Nc1cccc3c1CCCC3)CC(C)O2 (stereo not given)
→ 0% | -2%
O=C(CNC(=O)c1cc(-c2cccs2)on1)NC1CC1
→ 2% | 20%
Cc1cccc(COc2ccc3c(C)cc(=O)oc3c2)c1
→ 16% | 220%[activator]
COc1cccc(NS(=O)(=O)c2ccc3[nH]cc(C(=O)N(C)Cc4ccco4)c(=O)c3c2)c1
→ 22% | 17%
O=C(Nc1cccc(C(F)(F)F)c1)Nc1ccc2snnc2c1
→ ? | ?
CCc1ccc(NC(=O)COCc2cc(-c3ccc(F)cc3)on2)cc1
→ -9% | 0%

# (continued)
# Second line of a record – 2A Renilla | 2A firefly
Cc1ccc(C)c(C(C)NC(=O)CCNC(=O)C2CCCC2)c1 (stereo not given)
→ 6% | 14%
COc1ccc(S(=O)(=O)Nc2c(NC3CCCCC3)c3ccccc3oc2=O)cc1
→ 48%[activator] | 17%
Fc1ccc(-c2csc(-c3ccsc3)n2)cc1F
→ 13% | 180%[activator]
O=S(=O)(Nc1cccc(-c2ccc(N3CCOCC3)nn2)c1)c1ccc(F)c(C(F)(F)F)c1
→ 108%[activator] | 62%[activator]
Cc1c(C)n(Cc2ccccc2)c2ccc(C(=O)N3CCN(c4ccccc4)CC3)cc12
→ -4% | -14%
COc1cccc(NC(=O)Cn2c(=O)n(CCCCC(=O)NCCc3ccccc3)c(=O)c3ccccc32)c1
→ 7% | -7%
CC(=O)c1cccc(NC(=O)C23CC4CC(CC(C4)C2)C3)c1
→ 29% | 0%
Cc1cc(OCC(=O)NCC2(N3CCN(C)CC3)CCCCC2)cc(C)c1Cl
→ -4% | 0%
Cc1ccc(N2CCN(C(=O)c3c(C)oc4ncnc(N5CCOCC5)c34)CC2)c(C)c1
→ -10%&-1% | -8%&-8%
CCn1c(CN2CCN(C)CC2)nc2cc(NC(=O)c3ccc([N+](=O)[O-])cc3)ccc21
→ -12% | -16%
CCN(CC)S(=O)(=O)c1ccc(NC(=O)[C@H](CSCc2ccccc2)N2Cc3ccccc3C2=O)cc1
→ -6% | -14%
CCc1nonc1NC(=O)c1oc2ccccc2c1C
→ 38%[activator] | 168%[activator]
COc1c(CNC(C)c2nnc3n2CCC3)c(C)nn1C (stereo not given)
→ 3% | 18%
CN(CCOc1ccc(Br)cc1)C(=O)CSc1nnc(-c2ccc(Cl)cc2)n1C
→ ? | ?
CC(=O)Nc1cc(NC(C)=O)cc(-c2nc3ccccc3[nH]2)c1
→ -9% | -17%

# Arranged by SMILES length (largest number first): some entries from above
# Second line of a record – 2A Renilla | 2A firefly
O=S(=O)(Nc1cccc(-c2ccc(N3CCOCC3)nn2)c1)c1ccc(F)c(C(F)(F)F)c1
→ 108%[activator] | 62%[activator]
CCn1c(CN2CCN(C)CC2)nc2cc(NC(=O)c3ccc([N+](=O)[O-])cc3)ccc21
→ -12% | -16%
CN(CCOc1ccc(Br)cc1)C(=O)CSc1nnc(-c2ccc(Cl)cc2)n1C
→ ? | ?

# Another view of part of the listing above:
structure | 2A Renilla | 2A firefly
CCN(CC)S(=O)(=O)c1ccc(NC(=O)[C@H](CSCc2ccccc2)N2Cc3ccccc3C2=O)cc1 | -6% | -14%
CCc1nonc1NC(=O)c1oc2ccccc2c1C | 38%[activator] | 168%[activator]
COc1c(CNC(C)c2nnc3n2CCC3)c(C)nn1C (stereo not given) | 3% | 18%

# (listing goes on)
# Second line of a record – 2A Renilla | 2A firefly
CC(C)(C)c1csc(NC(=O)C2CCN(c3ccc(C#N)cn3)CC2)n1
→ 5% | 10%
Cc1cccc(C)c1NC(=O)CN1CCCC1=O
→ -11% | -18%
CC(OC(=O)C1=CN2CCS(=O)(=O)N=C2C=C1)C(=O)Nc1cccc(C(F)(F)F)c1 (stereo not given)
→ -9% | 0%
Cc1nc(-c2ccc(OC(F)(F)F)cc2)sc1C(=O)N1CCN(C=O)CC1
→ -10% | 70%[activator]
CCC(C)NC(=O)Cn1c(-c2ccccc2)cc2ccccc21 (stereo not given)
→ 17% | 5%
CCC(=O)N1CCc2cc(S(=O)(=O)NCCC(=O)NC(C)c3ccccc3)ccc21 (stereo not given)
→ 13% | -4%
Cc1cccc(NC(=O)/C(C#N)=C2\CCCC2C)c1 (stereo not given)
→ 59%[activator] | 0%
COc1ccc(CNC(=O)CCCn2c(=O)c3cccn3c3ccc(F)cc32)cc1OC
→ 35%[activator] | -4%
Cc1ccc2oc(=O)c3cc(C(=O)NCCCOC(C)C)sc3c2c1
→ -9% | -32%
CC(C1CC1)N(Cc1ccccc1)S(=O)(=O)c1ccccc1Cl (stereo not given)
→ 43%[activator] | 14%
CC(=O)c1ccccc1NC(=O)C1(c2ccccc2)CCC1
→ 8% | 7%
O=c1c2cc3c(cc2nc2sc(Nc4ccc(F)c(Cl)c4)nn12)OCO3
→ 4% | -3%
CCCN(C(=O)CCn1cnc2onc(-c3ccc(F)cc3)c2c1=O)c1ccccc1C
→ -11% | -5%
COc1cc(-c2noc(-c3ccc(NCC4CCCO4)c([N+](=O)[O-])c3)n2)cc(OC)c1OC (stereo not given)
→ -11% | -6%
C=CCNc1nc(C(=O)OC(C)C(=O)c2ccc3c(c2)CCC3)cs1 (stereo not given)
→ 11% | 44%[activator]
COc1cccc(NC(=O)CSc2nc3c(=O)[nH]cnc3n2C)c1
→ -14% | 7%
Cc1ccc(Cl)cc1N1CCN(C(=O)c2cc3c(-c4ccccc4F)nn(C)c3s2)CC1
→ -4% | -13%
Cc1cccc(NCCC#N)c1C
→ 11% | 1%
O=C(O)c1cc(-c2ccc[nH]2)nc2ccccc12
→ 6% | 23%
Cc1cccc(Nc2nnc(SCC(=O)c3ccc(Br)s3)s2)c1
→ 102%[activator] | 155%[activator]
CCCS(=O)(=O)Nc1cccc(-c2cn3ccc(C)cc3n2)c1
→ 24% | 243%[activator]
COc1ccc(-c2c(C#N)c(SCC(=O)Nc3ccc(C)cc3)nc(C)c2C(=O)Nc2ccccc2)cc1
→ 9% | 5%
CCOC(=O)C1(C)C=C(Nc2cccc(Br)c2)C(=O)N1c1cccc(Br)c1 (stereo not given)
→ -7% | 3%
Cc1ccc(C(C(=O)Nc2ccc3c(c2)OCCO3)N(C)C(=O)Cc2cccs2)cc1 (stereo not given)
→ 79%[activator] | 136%[activator]
COc1cc(Cl)c(C)cc1Nc1nc2ccccc2n2cnnc12
→ -22% | -3%
Cc1ccc(-n2ncc3c(NCC(C)C)ncnc32)c(C)c1
→ ? | 114%[activator]
CCCNC(=O)N1CCN(Cc2nc(-c3ccc(OC)cc3)oc2C)CC1
→ -16% | -5%
Cc1cccc(-c2nnc3sc(NC(=O)c4cccc(F)c4)nn23)c1
→ -15% | -14%
O=S(=O)(NCc1csc(-c2ccccc2)n1)c1cccc(F)c1
→ ? | -15%
COc1cccc(Nc2nc3cc(C)ccc3nc2NS(=O)(=O)c2ccc(Cl)cc2)c1
→ -5% | -26%
Cc1ccc(NC(=O)CCc2c(C)nn(-c3ccc(N4CCOCC4)nn3)c2C)c(C)c1
→ 6% | 6%
Cc1nnc(NC(=O)Nc2ccc(C)c(C)c2)s1
→ 3% | 101%[activator]
C#CC(C)(C)NS(=O)(=O)c1cccc2nsnc12
→ 16% | 12%
Nc1c(C(=O)Nc2ccccc2Cl)c2ccccn2c1C(=O)c1ccccc1
→ -9% | 4%
CCOc1ccc(C2CC(=O)c3c([nH]c(C(=O)OC4CCCCCC4)c3C)C2)cc1 (stereo not given)
→ -11% | -16%
Cc1cccc(C)c1-n1nnnc1SC(C(=O)N(C)C)c1ccccc1 (stereo not given)
→ 7% | -4%
COc1ccc(-n2c(/C=C\c3ccccc3F)nc3ccccc3c2=O)cc1OC
→ ? | ?
O=C(CCc1ncc(-c2ccc(Cl)cc2)o1)N1CCSCC1
→ -6% | 153%[activator]
NC(=O)Nc1cccc([N+](=O)[O-])c1
→ 0% | 0%
c1ccc(-c2ccc(CNCc3cccnc3)o2)cc1
→ 2% | 74%[activator]
